LASV entry inh = inhibitors of Lassa virus binding or cell entry | Lassa virus pseudotype entry inhibition, cell reporter; control for the full effect not named in the record | Potency, µM (doses to about 37.9 µM), for inactives: at the highest dose activity change, negative = inhibition, most hits filed as inhibitors | 1.2% of 300,000 active | AID 540256; active means well fitted inhibition curve with a large enough effect; inconclusive means small, poorly fitted or top-dose-only effect, or effect the other way; inactive means flat fitted curve, though single readings scatter; tested in HEK293 cells; also: % is scaled to controls: 0 for no effect and ±100 for the full control effect; nearly all actives have a fitted effect of over 50% in size; luciferase read-out
StopGo reporter = FMDV 2A StopGo reporter, luciferase signal | Potency, µM (series often up to 57.9 µM), inactives show at the highest dose signal change, negative = less light | 1.2% of 410,000 active | human cells with a luciferase reporter of 2A StopGo recoding; control for the full effect not named in the record; active = well fitted falling curve with a large enough effect; inconclusive = small, poorly fitted or top-dose-only effect; inactive = no such curve, though single readings can be large or run the other way; tested in HEK293T cells; also: % is scaled to controls: 0 for no effect and ±100 for the full control effect; nearly all actives have a fitted effect of over 45% in size; luciferase light after 4 h
SARS PLP yeast = inhibitors of SARS-CoV papain-like protease in yeast. S. cerevisiae expressing SARS-CoV PLpro, growth rescue; control for the full effect not named in the record. Potency, µM (titrated, usually from 32.9 µM), inactives show at the highest dose activity, positive = growth rescue. 0.19% of 330,000 active; active means well fitted rising curve with a large enough effect; inconclusive means small, poorly fitted or top-dose-only effect; inactive means no such curve, though single readings can be large or run the other way; also: 0% is about no effect; nearly all actives have a fitted effect of over 55% in size; growth read by luminescence after 48 h
NS1 inh = influenza NS1 inhibition; S. cerevisiae slowed by influenza A NS1, growth recovery by OD600; Potency, µM (top dose mostly 46.1 µM), for inactives: at the highest dose activity, positive = more growth; 0.4% of 270,000 active; active means well fitted rising curve with a large enough effect; inconclusive means small, poorly fitted or top-dose-only effect; inactive means no such curve, though single readings can be large or run the other way; also: nearly all actives have a fitted effect of over 50% in size
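Growth recovery, yeast-based: influenza A NS1 expressed in S. cerevisiae causes slow growth, and suppressors are detected by OD600. The parent strain without NS1 is used as positive control.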
Cruzain Triton = inhibitors of Trypanosoma cruzi cruzain with detergent; purified cruzain, Z-FR-AMC fluorescence, 0.01% Triton; Potency, µM, for the others: max response, negative = inhibition, usual class: inhibitors; 0.43% of 200,000 active;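 also: plate controls were neutral wells for no effect and buffer without enzyme for full effect; nearly all actives have a fitted effect of over 40% in size; top concentration of the series not given in the record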
Target sequence (P25779 123-467 limits assumed): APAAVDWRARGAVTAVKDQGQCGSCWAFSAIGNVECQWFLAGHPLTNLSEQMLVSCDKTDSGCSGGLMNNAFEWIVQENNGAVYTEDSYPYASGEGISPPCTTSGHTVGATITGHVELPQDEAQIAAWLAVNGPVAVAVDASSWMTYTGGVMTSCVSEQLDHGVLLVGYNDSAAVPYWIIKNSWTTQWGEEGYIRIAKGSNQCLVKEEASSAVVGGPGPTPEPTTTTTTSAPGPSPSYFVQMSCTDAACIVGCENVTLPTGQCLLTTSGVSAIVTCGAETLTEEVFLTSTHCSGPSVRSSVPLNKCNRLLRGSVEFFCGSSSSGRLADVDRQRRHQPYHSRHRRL
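Compounds were screened in titration against cruzain (1.5 nM) with 0.01% Triton X-100 to counter colloidal aggregation. Activity was the AMC fluorescence increase over 60 s after adding 2 uM Z-FR-AMC at pH 5.5.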
RE007 growth inh = less growth of the S. pombe RE007 Vpr strain | Potency, µM (series often up to 92.2 µM), for the others: at the highest dose activity change, negative = less growth | S. pombe RE007 Vpr strain, BacTiter-Glo ATP luminescence, 24 h; control for the full effect not named in the record | 0.21% of 360,000 active | AID 651644; active = well fitted falling curve with a large enough effect; inconclusive = small, poorly fitted or top-dose-only effect; inactive = no such curve, though single readings can be large or run the other way;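 also: % is scaled to controls: 0 for no effect and ±100 for the full control effect; nearly all actives have a fitted effect of over 50% in size; the assay follows cell death caused by Vpr and the record does not say whether a fall means rescue or toxicity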
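Fission yeast strain RE007, carrying one chromosomally integrated HIV-1 vpr copy, was seeded at OD 0.01 in PMG+AL medium with 23 nL pinned compound. After 24 h at 30 °C and 99% humidity, viability was read by BacTiter-Glo luminescence.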
Cruzain noTriton = cruzain (T. cruzi) inhibition without detergent. P25779. purified cruzain, Z-FR-AMC fluorescence, no detergent. Potency, µM, for inactives: max response, negative = inhibition, most hits filed as inhibitors. 2.3% of 200,000 active. AID 1476;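 also: plate controls were enzyme without inhibitor for no effect and buffer without enzyme for full effect; nearly all actives have a fitted effect of over 40% in size; top concentration of the series not given in the record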
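Detergent-free condition (0.00005% Triton X-100) in acetate buffer pH 5.5 with DTT. 1.5 nM enzyme and compound were pre-mixed 15 min, then 2 uM Z-FR-AMC substrate added; reaction progress from fluorescence change between first and third reads (60 s).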
MARV entry inh = Marburg virus entry inhibition; Marburg virus pseudotyped entry inhibition, cell reporter; control for the full effect not named in the record; about a third of the inactives were read at about 46 µM; Potency, µM (series often up to 37.8 µM), for the others: at the top dose activity change, negative = inhibition, usual class: inhibitors; 1.8% of 300,000 active; AID 540276; active = well fitted inhibition curve with a large enough effect; inconclusive = small, poorly fitted or top-dose-only effect, or effect the other way; inactive = flat fitted curve, though single readings scatter; tested in HEK293 cells; about a fifth of its hits are not listed in these tables; also: % is scaled to controls: 0 for no effect and ±100 for the full control effect; luciferase read-out
The depositor's hits bear a star; ? = inconclusive; · = not tested or not shown; & = joins results of further samples; [ ] = remark or other dose. Unless noted, calls follow the shape of the dose curve; as a rule, active = well fitted curve in the direction sought with a large enough effect; inconclusive = small, poorly fitted or top-dose-only effect, or another doubt; inactive = no such curve, though single readings can be large; an effect the other way counts as inactive or inconclusive. Potency is read from the fitted curve at half-maximal effect.

SMILES	LASV entry inh	StopGo reporter	SARS PLP yeast	NS1 inh	Cruzain Triton	RE007 growth inh	Cruzain noTriton	MARV entry inh
CCOc1cc(C(=O)Nc2ccc(F)cc2)cc(Br)c1OC	?	-11%	6%	-4%	-7.5%	0%	-11%	?
CCO[C@@H]1OC(C(=O)O)=C[C@H](c2ccc(C(F)(F)F)cc2)[C@H]1CCCO	·	-13%	1%	3%	·	-7%	·	·
O=C(NCCc1c[nH]c2ccccc12)c1cncc(Br)c1	2%	-5%	0%	·	·	9%	·	5%
COc1ccc(NC(=O)CSc2nc(-c3ccco3)nc3cc(=O)[nH]n23)cc1Cl	·	-22%	-6%	2%	·	-5%	·	·
CCCN1C(=O)/C(=C/c2nc3ccccc3c(=O)[nH]2)c2ccccc21	-7%	0%	-4%	12%	-7.7%	-4%	0%	?
Cc1cc(OC(C)C)nc(-c2ccccc2O)n1	9%	0%	18%	0%	9.3%	0%	1%	6%
Cc1ccc(S(=O)(=O)c2nc(Nc3ccccc3N3CCOCC3)sc2Cl)cc1	0%	-4%	-9%	22%	0.8%	13%	15%	?
CC(=O)Nc1ccc(S(=O)(=O)NCCC(=O)OCc2csc(CC(=O)Nc3ccccc3C)n2)cc1	23%	-25%	-1%	·	·	18%	·	1%[46.1 µM]
CCCCn1c(O)c(C=NCCCn2ccnc2)c(=O)[nH]c1=O	-6%	7%	0%	3%	2.4%	22%	2%	5%
Cc1onc2c(=O)n(-c3ccccc3)nc(-c3ccccc3)c12	18%	-13%	1%	-8%	·	5%	·	?
CCOc1ccc(S(=O)(=O)NCc2ccc3c(c2)OCO3)cc1	·	15%	4%	-41%	·	15%	·	·
CCOC(=O)N1CCC(NC(=O)c2cc(C(=O)NCc3ccc(F)cc3)ccc2CO)CC1	-11%	-13%	22%	-12%	2.7%	7%	11%	?
O=C(Cn1ccc2cc(S(=O)(=O)N3CCCC3)ccc21)NCc1ccccc1	3%[46.1 µM]	-15%	-1%	-6%	·	-6%	·	-14%[46.1 µM]
O=C(CCS(=O)(=O)c1nc(-c2ccc3c(c2)OCO3)cc(C(F)(F)F)n1)Nc1ccc(Br)cc1	3%[46.1 µM]	?	·	·	-22%	·	?	?
COc1ccccc1-n1nnnc1SCc1cc2c(cc1Br)OCO2	?	-18%	1%	-36%	4.4%	4%	-22%	-26%&-26%[46.1 µM]
Cc1ccc(S(C)=O)cc1-n1c(=O)n(Cc2ccccc2)c(=O)c2[nH]cnc21 (stereo not given)	4%	7%	1%	4%	·	-1%	·	3%[46.1 µM]
CCOC(=O)c1c(NC(=O)C2=C(C)NC(=S)NC2c2ccc(F)cc2F)sc(C)c1C (stereo not given)	?	0%	0%	3%	-4.0%	2%	?	?
CC(CCc1ccccc1)NC(=O)C1CCC1 (stereo not given)	11%	8%	·	·	·	30%	·	6%
CS(=O)(=O)c1ccc(C(=O)N2CC(=O)Nc3ccccc32)cc1	4%	-5%	-17%	0%	·	-17%	·	2%[46.1 µM]
COc1ccccc1C(=O)Nc1c(C(=O)N2CCN(c3ccc(F)cc3)CC2)oc2ccccc12	-1%[46.1 µM]	-16%	·	·	0.1%	·	10%	·
O=C(Cc1coc2cc3c(cc12)CCC3)OCC(=O)N1CCCC1=O	?	14µM*	-1%	-8%	·	-30%	·	?
CCCCc1c(O)nc(SCC(=O)c2ccccc2)n(-c2ccccc2OC)c1=O	2%	0%	0%	16%	·	-9%	·	7%[46.1 µM]
CCCCn1c(O)c(C(CC)=NCc2cccnc2)c(=O)[nH]c1=O	3%	-17%	4%	-8%	1.4%	-6%	12%	-2%
COc1ccc(NC(=O)C(=O)NCC2(c3ccc(OC)c(OC)c3)CCCC2)cc1	-2%[46.1 µM]	?	·	·	0.7%	·	3%	-2%[46.1 µM]
Cc1ccc(NC(=O)c2ccc(OCC3CCCO3)cc2)c(C)c1 (stereo not given)	8%	-4%	-23%	-5%	-0.7%	-7%	-7%	26%
COc1ccc(Cl)cc1Nc1nc(N)nc(C(F)(F)F)n1	9%	-28%	-11%	-10%	-6.1%	-4%	10%	-12%
COC(=O)[C@@H]1Cc2c([nH]c3ccccc23)C2CCC(=O)N21 (stereo not given in full)	-30%	9%	1%	1%	·	-4%	·	?
O=c1oc(Nc2cccc(F)c2)nc2ccccc12	-15%	-2%	4%	0%	-3.0%	-26%	-7%	-14%
CCOc1ccc(-c2[nH]nc3c2C(c2cccnc2)C(C#N)=C(N)O3)cc1 (stereo not given)	1%	-11%	-1%	-1%	-4.2%	-3%	-8%	3%
COc1cccc(CN2CCNC(=O)C2CC(=O)NCc2cn3ccccc3n2)c1OC (stereo not given)	-12%	0%	0%	-2%	·	-3%	·	16%[46.1 µM]
O=C(COC(=O)c1cc(S(=O)(=O)N2CCOCC2)ccc1O)NCC1CCCO1 (stereo not given)	15%	-17%	8%	-5%	0.9%	0%	-2%	10%&10%
Cc1ccc(NC(=O)COc2ncnc3cc([N+](=O)[O-])ccc23)cc1S(=O)(=O)N1CCOCC1	·	?	-1%	0%	·	22%	·	·
CCc1cccc(C)c1NS(=O)(=O)c1ccc(-c2cc(C)no2)s1	-7%[46.1 µM]	-6%	·	·	1.2%	·	-2%	·
CC(C)Cn1c(N)c(C(=O)COC(=O)c2ccc([N+](=O)[O-])o2)c(=O)n(C)c1=O	-24%	?	-1%	·	·	6%	·	0%[14.2 µM]
O=C(NC1CCCC1)c1cc2ccccc2o1	·	27%	-1%	-15%	·	-6%	·	·
COCCCNC(=O)CCn1c(=O)c2ccccc2n(Cc2cccc([N+](=O)[O-])c2)c1=O	-4%	8%	1%	·	·	19%	·	3%[46.1 µM]
CC(=O)c1ccc(N2CCN(C(=O)c3cccc(Oc4ccccc4)c3)CC2)cc1	3.2µM*	-21%	0%	·	·	5%	·	?
Cc1cccc(NC(=O)CCN2CC(C)CC(C)C2)c1 (stereo not given)	·	-1%	-2%	-2%	·	24%	·	·
N#Cc1nc(Cc2cccc3ccccc23)oc1NCCCn1ccnc1	-18%	-21%	-1%	2%	6.4%	-4%	13%	?
Cc1ccc(-c2cn3cccnc3n2)cc1NC(=O)C(C)(C)Oc1ccc(Cl)cc1	-4%[46.1 µM]	-2%	·	·	-1.0%	·	7%	·
O=C(NC1CCN(S(=O)(=O)c2ccc(Cl)cc2)CC1)c1cccnc1	·	-11%	-13%	-11%	·	2%	·	14%[46.1 µM]
O=C(O)c1ccc(N/N=C/c2cn(Cc3ccccc3F)c3ccccc23)cc1	·	?	-2%	5%	·	2%	·	·
CC(C)NC(=O)N1CCC(n2nccc2NC(=O)CCOc2ccccc2)CC1	12%[46.1 µM]	-23%	-4%	7%	·	-1%	·	-10%[46.1 µM]
O=C(c1ccc([N+](=O)[O-])o1)N1CCN(c2nc3c(Cl)cccc3s2)CC1	?	?	0%	·	·	-19%	·	?
C/C(=N\NC(=O)c1ccc(CN2CCOCC2)cc1)c1cccc([N+](=O)[O-])c1	-5%	?	-6%	-2%	1.2%	-9%	-9%	?
O=S(=O)(NC1CCCCC1N1CCCCC1)c1ccccc1 (stereo not given)	·	-20%	0%	2%	·	-4%	·	·
O=C(CN(C(=O)c1ccc(Cl)cc1)N1C(=O)C2C3C=CC(C3)C2C1=O)c1cccs1 (stereo not given)	·	2%	20%	10%	·	-7%	·	·
CCOc1ccc(OCC)c(NC(=O)c2nnn(CC(=O)Nc3ccc(C)cc3C)c2N)c1	12%[46.1 µM]	-18%	·	·	-1.6%	·	1%	7%[46.1 µM]
N#C/C(=C/c1ccc(Cl)cc1Cl)c1nc2ccccc2c(=O)[nH]1	-17%[46.1 µM]	-24%	·	·	-0.5%	·	5%	·
Cc1cc(C)cc(N(C(=O)c2nsc(Cl)c2Cl)C(C(=O)NC2CCCC2)c2ccc(O)cc2)c1 (stereo not given)	?	-16%	-1%	3%	1.6%	4%	16%	?

Following part
SMILES	LASV entry inh	StopGo reporter	SARS PLP yeast	NS1 inh	Cruzain Triton	RE007 growth inh	Cruzain noTriton	MARV entry inh
Cn1c2ccccc2c2cc([N+](=O)[O-])ccc21	-2%	-3%	-1%	2%	·	1%	·	-6%
CC1(C)Cc2c(sc(NC(=O)C(C)(C)C)c2C#N)C(C)(C)N1	-26%	-8%	27%	3%	0.8%	-1%	-7%	?
COC(=O)[C@@H](NC(=O)c1ccccc1OC1CCN(S(C)(=O)=O)CC1)C(C)C	?	-7%	5%	4%	·	19%	·	-11%[46.1 µM]
Cc1cc(NS(=O)(=O)c2ccc(NC(=O)/C=C/c3c(F)cccc3Cl)cc2)nc(C)n1	·	35%[activator]	0%	9%	·	4%	·	·
O=C(CCS(=O)(=O)c1ccc(Cl)cc1)Nc1nc(-c2cccnc2)cs1	·	-10%	10%	3%	·	15%	·	·
CCc1ccc(C(=O)COC(=O)C(NC(=O)C2CCC(C)CC2)C(C)C)cc1 (stereo not given)	-4%[46.1 µM]	0%	·	·	-15%	·	-5%	14%[46.1 µM]
CCOC(=O)C1=C(C)NC(=O)CC1c1ccccc1OC (stereo not given)	?	10%	0%	2%	·	-5%	·	1%[46.1 µM]
Cc1ccc(CSCCNC(=O)/C=C/c2ccccc2Cl)cc1	-3%	13%	-2%	5%	-0.3%	2%	-9%	3%
COc1ccccc1CNC(=O)c1ccc2c(c1)CCN2S(=O)(=O)c1ccccc1	-28%[46.1 µM]	10%	·	·	-2.6%	·	-20%	2%[46.1 µM]
C/C(=N\NC(=O)COc1ccc(C)cc1Br)c1cc([N+](=O)[O-])cs1	?	-10%	-2%	1%	·	-16%	·	?
CC1COC(Cn2c3ccccc3c3ccccc32)O1 (stereo not given)	?	0%	-3%	5%	·	-1%	·	?
COc1ccc(NC(=S)NC(NC(=O)/C=C/c2ccccc2)C(Cl)(Cl)Cl)cc1 (stereo not given)	-26%	?	-6%	5%	-7.0%	25%	?	-15%
O=C(CN1CCC(O)(c2ccc3c(c2)OCO3)CC1)N1CCOCC1	-12%	·	3%	-5%	0.8%	-12%	-2%	?

High-throughput results: PubChem, National Center for Advancing Translational Sciences (NCATS)
